# Polio RdRp inh: poliovirus RdRp elongation inhibitors, primary screen, biochemical, fluorescence polarization, total intensity; % elongation, % (compound at 16.7 µg/mL); 0.66% of 150,000 active; AID 588519, 2011; poliovirus polymerase elongation; stronger effect = lower value; in the data active = % elongation below about 90%; note: some results filed as inactive read as strong as hits
# Target sequence (P03300 1749-2209 limits assumed): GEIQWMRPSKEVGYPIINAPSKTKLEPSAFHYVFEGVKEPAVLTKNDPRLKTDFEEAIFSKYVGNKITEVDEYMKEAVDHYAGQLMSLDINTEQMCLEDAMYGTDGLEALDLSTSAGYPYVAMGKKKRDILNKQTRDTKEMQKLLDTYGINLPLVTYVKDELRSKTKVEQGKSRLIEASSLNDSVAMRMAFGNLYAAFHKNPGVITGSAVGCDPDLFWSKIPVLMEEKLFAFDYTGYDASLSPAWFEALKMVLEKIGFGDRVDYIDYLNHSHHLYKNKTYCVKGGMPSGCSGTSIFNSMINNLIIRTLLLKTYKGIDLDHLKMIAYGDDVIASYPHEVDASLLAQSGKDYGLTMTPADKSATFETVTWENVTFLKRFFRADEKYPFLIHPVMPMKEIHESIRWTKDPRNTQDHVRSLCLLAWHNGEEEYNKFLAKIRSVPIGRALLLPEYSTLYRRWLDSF
# Polio RdRp inh intensity: further read-out of Polio RdRp inh, marked with its call; % elongation; measured here: total intensity read-out; formula for this scale not given here;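 total fluorescence in place of polarization; lower means less elongation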
# Numbers without * were called inactive. This is a subset; count on the stated rates, not on these rows.
# Results follow in this order: Polio RdRp inh	Polio RdRp inh intensity
Cc1ccc(C2CC(=O)Nc3cc4c(cc32)OCCO4)cc1Br (stereo unspecified)
→ 100	104
COc1ccc(CNC(=O)CC2N=C3c4ccccc4N=C(SCC(=O)Nc4ccc(C(C)C)cc4)N3C2=O)cc1 (stereo unspecified)
→ 111	109
CCc1nc2cccnc2n1-c1ccc(CC(=O)Nc2c(C)cccc2C)cc1
→ 108	113
O=C(Cc1ccc(F)cc1)NC1CC(=O)N(c2ccccc2)C1 (stereo unspecified)
→ 106	111
COc1ccc(-c2cc(=O)c3cc(OCC(=O)OC(C)C)ccc3o2)cc1
→ 103	97
Cc1ccc(CN(C(=O)COc2ccccc2Cl)c2ccccn2)o1
→ 109	108
CCOC(=O)c1c(NC(=O)c2cc(C(C)C)on2)sc(C)c1C
→ 92	96
O=C(Nc1ccc(F)c(Cl)c1)Nc1c[nH]c(=O)[nH]c1=O
→ 109	107
Cn1c(=O)n(C)c2cc(CNCCc3ccc(F)cc3)ccc21
→ 105	110
COc1ccc(-c2nc3ccccc3s2)cc1NC(=O)COc1ccc(C)cc1
→ 101	98
Cc1ccc(C)c(N2CCN(CCCNC(=O)Cn3ncc4c([nH]c5ccccc54)c3=O)CC2)c1
→ 108	114
O=C(CCn1cnc2ccccc2c1=O)NCc1ccccc1Cl
→ 113	112
CCn1c(CN2CCC(C)CC2)nc2cc(NC(=O)COc3ccc(Cl)c(C)c3)ccc21
→ 110	106
CCc1ccc(Nc2nc(-c3cc4cccc(OC)c4oc3=O)c(CC)s2)cc1
→ 104	98
COc1ccc(Nc2nc(N)nc(N)c2S(=O)(=O)c2ccccc2)cc1
→ 110	112
Cc1ccccc1C(=O)Nc1ccc2c(c1)CCCN2C(=O)c1cccs1
→ 103	113
Cc1ccc(-c2nnc(Nc3cccc(O)c3)c3ccccc23)cc1S(=O)(=O)N1CCCCC1
→ 101	103
CCn1nnc2cc(C(=O)Nc3cccc(C)c3C)ccc21
→ 102	107
Cc1oc2ccc(O)c(CN3CCN(C)CC3)c2c1C(=O)Nc1ccccc1
→ 102	101
CCCNC(=O)c1ccc2c(c1)sc1nc(-c3ccc(C)cc3)cn12
→ 108	106
Cc1cccc(C(=O)Nc2nc3nc(-c4ccccc4)cc(=O)n3[nH]2)c1
→ 106	107
COC(=O)c1ccccc1NC(=O)c1c(C)oc2ncn(C)c(=O)c12
→ 106	109
Cc1sc2ncn(CC(=O)Nc3ccc(F)cc3F)c(=O)c2c1S(=O)(=O)N1CCC(C)CC1
→ 105	112
COc1cc(C2C(C(=O)Nc3ccc(C)cc3C)=C(C)Nc3nc4ccccc4n32)cc(OC)c1OC (stereo unspecified)
→ 105	109
COc1ccc(OC)c(NC(=O)CSc2cn(CC(=O)N3CCOCC3)c3ccccc23)c1
→ 119	123
COc1cccc(CNC(=O)c2cc3c(=O)n(Cc4cccnc4)ccc3nc2C)c1
→ 109	102
CCOc1ccc(CNC(=O)CN2C(=O)CCn3nc(-c4cn(C)c5ccccc45)cc32)cc1OC
→ 106	113
Cc1noc2ncnc(N3CCCC(C(=O)Nc4cc(F)ccc4F)C3)c12 (stereo unspecified)
→ 113	105
Cc1c(C(=O)N(Cc2ccc(N(C)C)cc2)CC2CCCO2)oc2ccccc12 (stereo unspecified)
→ 113	116
COc1ccc(Cn2c(SCc3ccc(C(=O)NC4CCCCC4)cc3)nc3cccnc32)cc1
→ 116	108

# Reprinted from the part before: two compounds, then new ones.
# Results follow in this order: Polio RdRp inh	Polio RdRp inh intensity
Cc1c(C(=O)N(Cc2ccc(N(C)C)cc2)CC2CCCO2)oc2ccccc12 (stereo unspecified)
→ 113	116
COc1ccc(Cn2c(SCc3ccc(C(=O)NC4CCCCC4)cc3)nc3cccnc32)cc1
→ 116	108
COc1ccc(CCNc2ncnc3c2cnn3-c2ccc(F)cc2)cc1
→ 105	108
COc1cccc(C(=O)NC(c2ccc(Cl)cc2)c2cc(Cl)c3cccnc3c2O)c1 (stereo unspecified)
→ 47	249
COc1cc(/C=C(\C#N)c2nc3ccc(C)cc3[nH]2)ccc1OCc1ccc(C)cc1
→ 104	133
CCOc1sc2nc(C)n(CC(=O)Nc3cccc(C)c3)c(=O)c2c1C
→ 104	105
COc1ccc(NC(=O)c2sc3nc[nH]c(=O)c3c2C)cc1Cl
→ 105	116
COc1ccc(NC(=O)CNC(=O)Cn2ccc3ccccc3c2=O)cc1OC
→ 105	105
CCC1CN(S(=O)(=O)c2cc(-c3cc(C)no3)ccc2OC)c2cc(C)ccc2O1 (stereo unspecified)
→ 103	97
CCCCN(C)C(=O)CN1C(=O)c2cccnc2Oc2ccc(Cl)cc21
→ 102	108
COc1ccc(NC(=O)c2sc3nc4c(cc3c2N)N2CCC4CC2)cc1OC
→ 97	87
O=C(NCc1ccccc1Cl)c1cccn1-c1nnc(N2CCCCC2)s1
→ 102	111
COc1ccc(-c2nnc(SCC(=O)NC3CCCCC3)nc2-c2ccc(OC)cc2)cc1
→ 116	108
COc1ccc(NC(=O)c2cnn(-c3ccc(C)c(C)c3)c2C2CCNCC2)cc1OC
→ 102	106
CCc1ccc(C(=O)c2cn(CC(=O)Nc3ccc(F)cc3)c3ccc(F)cc3c2=O)cc1
→ 105	107
CCN(CCN(C)C)C(=O)Cn1ncc2c([nH]c3ccc(C)cc32)c1=O
→ 112	112
CCOC(=O)CC(NC(=O)CCc1c(C)nc2ncnn2c1C)c1ccc(C)cc1 (stereo unspecified)
→ 108	108
Cc1ccc(CNC(=O)c2nc(SCc3ccccc3F)ncc2Cl)cc1
→ 101	103
O=C(Nc1cccc(C(F)(F)F)c1)Nc1nnc(N2CCCCC2)s1
→ 112	112
COc1ccc(-c2n[nH]c3c2C(c2ccccn2)N(C)C3=O)cc1 (stereo unspecified)
→ 104	102
CCn1c(COc2ccc(Cl)cc2Cl)nc2ccccc21
→ 104	107
Cc1cccc(-n2c(=O)c3c(c4cc(C)ccc4n3C)n(CC(=O)Nc3ccccc3C(F)(F)F)c2=O)c1
→ 105	107
CCCN1CCN(CCNC(=O)Nc2ccccc2OCC)CC1
→ 103	106
Cc1ccc2oc3c(c(=O)c2c1)C(c1ccc([N+](=O)[O-])cc1)N(CCCN1CCOCC1)C3=O (stereo unspecified)
→ 101	109
Cc1cc(C)cc(-n2c(C)cc(C(=O)C(=O)Nc3nnc(C)s3)c2C)c1
→ 104	102
CCOc1ccccc1CNCCNC(=O)c1nonc1N
→ 106	106
COc1ccc(-c2noc(CSc3nc4ccccc4[nH]3)n2)cc1OC
→ 97	97
CCC(C)c1ccc(OCC(=O)Nc2cccc3ccc(C)nc23)cc1 (stereo unspecified)
→ 103	105
Cc1c(/C=C(\C#N)C(=O)Nc2cccc(Cl)c2)c2ccccc2n1Cc1ccccc1
→ 122	132
CCOc1cc(Cl)c(S(=O)(=O)n2cc(C)nc2CC)cc1Cl
→ 101	104
COc1cc2nc(NCc3ccccc3)n3nc(-c4ccccc4)nc3c2cc1OC
→ 104	106
COC(=O)c1ccc2c(c1)N(Cc1ccccc1)C(=O)c1ccccc1S2(=O)=O
→ 112	113
O=C(CCC1N=C2c3ccccc3N=C(SCc3cccc(Cl)c3)N2C1=O)NCCc1ccccc1 (stereo unspecified)
→ 104	108
Cn1c(NCCO)nc2c1c(=O)n(Cc1cccc(F)c1)c(=O)n2C
→ 112	118
O=C(CCS(=O)(=O)c1nc(-c2ccc3c(c2)OCO3)cc(C(F)(F)F)n1)Nc1ccccc1C(F)(F)F
→ 106	110
O=C(/C=C\c1ccccc1)NC1CC(=O)N(c2ccccc2)C1 (stereo unspecified)
→ 108	99
COC(=O)c1ccc(-n2c(/C=C\c3cccc(Br)c3)nc3ccccc3c2=O)cc1
→ 111	111
COc1ccc(NC(=O)C2CCCN(S(=O)(=O)c3c(C)n[nH]c3C)C2)cc1OC (stereo unspecified)
→ 104	101
COc1ccc(NC(=O)C(Cc2ccccc2)NS(=O)(=O)c2ccc(Br)s2)cc1OC (stereo unspecified)
→ 104	105
N#C/C(=C\c1ccc(O)cc1)C(=O)NCC1CCCO1 (stereo unspecified)
→ 104	102
Cc1ccccc1C(=O)Nc1cccc(C(=O)OCc2cc(=O)n3c(C)csc3n2)c1
→ 101	108
COc1cc(NS(=O)(=O)c2ccc3c(c2)CC(C)N3C(=O)C2CCC2)cc(OC)c1OC (stereo unspecified)
→ 106	113
Cc1ccc(C)c(NC(=O)Cn2cc(C(=O)c3ccncc3)c(=O)c3cc(F)ccc32)c1
→ 110	126
Cc1ccc(CNC(=O)c2cccc(N3CCCS3(=O)=O)c2)cc1
→ 112	116
COc1cc(-c2noc(-c3nnn(-c4ccc(Cl)cc4)c3C)n2)cc(OC)c1OC
→ 103	96
Cc1ccccc1OCc1nnc(SCc2cc(=O)c3ccc(C)c(C)c3[nH]2)n1C
→ 108	111
COc1cc2c(-c3ccccc3C)nc3c(c(C)nn3-c3ccccc3)c2cc1OC
→ 108	111
CC(=O)c1cccc(NC(=O)Cn2c(=O)oc3cc(S(=O)(=O)N4CCCC4)ccc32)c1
→ 105	105
Cc1ccccc1-c1nnc(C2CCN(S(=O)(=O)c3ccc(Cl)cc3)CC2)o1
→ 107	106
CCc1ccc(CNC(=O)Cn2nc(-c3ccc(Cl)cc3)ccc2=O)cc1
→ 117	111
Cc1nn(CC(=O)Nc2cccc(C(F)(F)F)c2)c(=O)c2nn(-c3ccccc3)c(C)c12
→ 118	126
COc1ccc(Cl)cc1NC(=O)c1cc(C)nc2c1c(C)nn2-c1ccccc1
→ 101	95
Cc1ccc2scc(N3CCC(C)CC3)c(=O)c2c1
→ 103	98
CCOc1ccc(C(=O)NCCn2cc(SCC(=O)Nc3ccccc3)c3ccccc32)cc1
→ 100	105
Cc1ccc(C(=O)Nc2c(C)nc3ccccn3c2=O)cc1C
→ 106	106
CCc1nn2c(=O)c(S(=O)(=O)Nc3ccc(Br)cc3F)c(C)nc2s1
→ 102	105
CN(Cc1ccccc1)C(=O)CN1C(=O)CSc2ccc(S(=O)(=O)N3CCOCC3)cc21
→ 106	105
Cc1c2cnn(-c3ccccc3)c(=O)c2c(C)n1CCCC(=O)Nc1cccc(F)c1
→ 82*	82*
CCCCNC(=O)CCn1nc(-c2ccc(Cl)cc2)c2ccccc2c1=O
→ 110	110
CCc1ccc(NC(=O)N(Cc2c[nH]c3ccccc23)C2CCCCCC2)cc1
→ 108	106
Cc1ccc(NC(=O)Cn2nc3c(cc2=O)CCCC3)cc1Cl
→ 104	109
CCOc1ccccc1C(=O)N(Cc1cc(OC)c(OC)c(OC)c1)C1CCS(=O)(=O)C1 (stereo unspecified)
→ 108	104

# (next part)
# Results follow in this order: Polio RdRp inh	Polio RdRp inh intensity
CCOc1ccccc1NC(=O)CSc1nc2c(oc3ccccc32)c(=O)n1-c1ccc(C)c(C)c1
→ 107	113
O=C(Nc1ccccc1C(=O)OCc1cc(=O)n2ccsc2n1)c1ccc(Cl)cc1
→ 107	106
Cc1cc(C)cc(NC(=O)c2cnn(-c3ccc(C)c(C)c3)c2C2CCNCC2)c1
→ 101	105
COc1cccc(C(=O)NCC(=O)OCc2cc(=O)n3ccsc3n2)c1
→ 105	99
Cc1ccc(C(=O)NCC(c2ccco2)S(=O)(=O)c2ccc(Cl)cc2)cc1C (stereo unspecified)
→ 104	104
COc1ccc(CNC(=O)Cc2ccc(NC(=O)N3CCSc4ncccc43)cc2)cc1
→ 107	112
CC(=O)N1c2ccc(S(=O)(=O)NCCC(=O)N(C)Cc3ccccc3)cc2CC1C (stereo unspecified)
→ 106	107
O=C(NCCS(=O)(=O)N1CCN(c2ccc(F)cc2)CC1)C1CC(=O)N(c2ccc(F)cc2)C1 (stereo unspecified)
→ 110	107
COc1ccc(CNC(=O)Nc2ccc3c(c2)N(C)C(=O)c2ccccc2S3)cc1
→ 104	103
CCOC(=O)CN1C(=O)c2ccccc2Sc2ncccc21
→ 102	106
CCC(=O)N1CCc2cc(Br)cc(S(=O)(=O)N3CCCC(C(=O)Nc4cccc(F)c4)C3)c21 (stereo unspecified)
→ 105	109
COc1ccc(S(=O)(=O)N2CCCN(CC(=O)Nc3ccc(NC(C)=O)cc3)CC2)cc1
→ 107	110
COC(=O)c1cc(S(=O)(=O)N2CCN(c3ccc(F)cc3)CC2)cn1C
→ 111	111
CNC(=O)c1c(NC(=O)c2ccc(S(=O)(=O)N3CCCC(C)C3)cc2)sc2c1CCC2 (stereo unspecified)
→ 105	108
CCCN(C(=O)c1cc2c(s1)-c1ccccc1OC2)c1ccc(C(C)C)cc1
→ 104	108
CCOc1cc2[nH]c(=O)n(Cc3ccc(C(=O)N4CCN(c5ccccc5)CC4)cc3)c(=O)c2cc1OCC
→ 103	98
COc1cccc(C(=O)Nc2c3c(nn2-c2ccc(Cl)cc2)CS(=O)(=O)C3)c1
→ 107	111
Cc1cccc(N2CCN(c3ccc(C(=O)O)cc3NC(=O)c3ccccc3F)CC2C)c1 (stereo unspecified)
→ 102	110
Cc1cccc(-n2c(SCC(=O)Nc3ccc(C)c(C)c3)nc3n[nH]c(C)c3c2=N)c1
→ 97	102
COC(=O)c1ccc(Cn2c(SCC(=O)Nc3ccc(F)cc3)nc3ccccc32)cc1
→ 103	106
CCCCN(CC)CCCNC(=O)C1CCN(c2nc3ccc(CC)cc3s2)CC1
→ 101	101
CCN(C(=O)Cn1nc2c3cc(F)ccc3n(Cc3cccc(C)c3)cc-2c1=O)c1cccc(C)c1
→ 102	94
COc1ccc(OC)c(NC(=O)Cn2cc(C(=O)c3ccccc3F)c3ccccc32)c1
→ 106	110

# As entered above.
# For Polio RdRp inh intensity, `CCOc1cc2[nH]c(=O)n(Cc3ccc(C(=O)N4CCN(c5ccccc5)CC4)cc3)c(=O)c2cc1OCC` reads 98
# For Polio RdRp inh intensity, `CCCCN(CC)CCCNC(=O)C1CCN(c2nc3ccc(CC)cc3s2)CC1` reads 101
# For Polio RdRp inh intensity, `Cc1cccc(N2CCN(c3ccc(C(=O)O)cc3NC(=O)c3ccccc3F)CC2C)c1` (stereo unspecified) reads 110
# For Polio RdRp inh intensity, `CCN(C(=O)Cn1nc2c3cc(F)ccc3n(Cc3cccc(C)c3)cc-2c1=O)c1cccc(C)c1` reads 94
# For Polio RdRp inh intensity, `COc1cccc(C(=O)Nc2c3c(nn2-c2ccc(Cl)cc2)CS(=O)(=O)C3)c1` reads 111
# For Polio RdRp inh intensity, `COC(=O)c1ccc(Cn2c(SCC(=O)Nc3ccc(F)cc3)nc3ccccc32)cc1` reads 106
